# HIV Env fusion: inhibitors of HIV-1 Env-driven cell-cell fusion, primary screen, HeLa-JRFL effector, CEM21 target cells, luciferase. inhibition, % at 12.3 µM. hit rate 1.1% among 360,000. AID 651610, 2012;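 active means mean replicate inhibition score of at least 50 and every replicate individually at or above 50; inconclusive means only one of the two criteria met; inactive means mean below 50 and not all replicates reaching 50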;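 further: 0% = plate neutral controls and 100% = maraviroc near 300 nM; one replicate is shown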
# An asterisk follows results filed as active; ? = inconclusive; [ ] = remark or other dose. These rows are one share of the data; the hit share may differ from the screen's.
SMILES,HIV Env fusion
CO[C@@H](CN(C)C(=O)C1CC1)[C@H](C)CN(C(=O)Nc1ccc(C(F)(F)F)cc1)[C@@H](C)CO,3.5[16.7 µM]
C[C@H]1CCCCO[C@@H](CN(C)C(=O)C2CCCCC2)[C@@H](C)CN([C@@H](C)CO)C(=O)c2cc(N(C)C)ccc2O1,10.4[16.7 µM]
C[C@@H]1CN([C@H](C)CO)C(=O)c2cc(N(C)C)ccc2O[C@@H](C)CCCCO[C@H]1CN(C)C(=O)Nc1ccc(F)cc1,6.0[16.7 µM]
CO[C@@H]1CC[C@H]2CCOc3c(C#N)cccc3C(=O)N(C)[C@@H](C)C(=O)N(C)C[C@@H]1O2,-3.9[16.7 µM]
O=C(C[C@H]1CC[C@@H]2[C@H](COC[C@@H](O)CN2Cc2cccc(Cl)c2)O1)N1CCCCC1,-10.8[16.7 µM]
CN(C)C(=O)C[C@@H]1C[C@@H]2c3cc(NC(=O)Nc4ccc(F)cc4)ccc3O[C@@H]2[C@@H](CO)O1,0.7[16.7 µM]
C[C@H](CO)N1C[C@H](C)[C@@H](CN(C)S(=O)(=O)c2cn(C)cn2)Oc2c(NC(=O)Nc3ccc(F)cc3)cccc2C1=O,-12.3[16.7 µM]
Cc1cc(N2CCN(C(=O)OC(C)(C)C)C[C@@H]2C)ccc1N1C[C@@H](C)O[C@@H](C)C1,18.6
Cc1ccccc1S(=O)(=O)N(C)C[C@H]1OCc2ccccc2-c2ccccc2C(=O)N([C@@H](C)CO)C[C@H]1C,-6.2[16.7 µM]
CO[C@@H]1CC[C@H]2CCN(C)C(=O)[C@H](C)[C@H](OC)CN(C)C(=O)c3cc(C#N)ccc3OC[C@H]1O2,12.5[16.7 µM]
O=C(C[C@H]1C[C@@H]2c3cc(NC(=O)c4ccc5c(c4)OCO5)ccc3O[C@@H]2[C@H](CO)O1)NCc1cccnc1,-14.5[16.7 µM]
CN(C)C(=O)C[C@@H]1CC[C@@H]2[C@H](COc3ccc(NC(=O)NCc4ccccc4)cc3C(=O)N2C)O1,9.1[16.7 µM]
C[C@@H]1CN([C@H](C)CO)C(=O)c2cc(NC(=O)CCCN(C)C)ccc2O[C@@H]1CN(C)S(C)(=O)=O,6.3[16.7 µM]
CS(=O)(=O)Nc1ccc2c(c1)[C@H]1C[C@H](CC(=O)NCc3cc(F)ccc3F)O[C@@H](CO)[C@H]1O2,-1.0[16.7 µM]
CN1C(=O)c2cc(NC(=O)Cc3cccs3)ccc2OC[C@@H]2O[C@H](CC(=O)NCCc3ccncc3)CC[C@H]21,1.0[16.7 µM]
C[C@@H]1CN([C@H](C)CO)C(=O)c2cccc(NS(=O)(=O)c3ccc(F)cc3)c2O[C@H]1CN(C)Cc1ccc(Oc2ccccc2)cc1,1.3[16.7 µM]
CCCNC(=O)N1C[C@H](C)[C@H](OC)CN(C)C(=O)c2ccc(NS(=O)(=O)CC(F)(F)F)cc2OC[C@@H]1C,-19.5[16.7 µM]
CO[C@H]1CN(C)C(=O)c2cccc(C#N)c2OCC[C@@H]2CC[C@@H](OC)[C@@H](CN(C)C(=O)[C@H]1C)O2,1.6[16.7 µM]
COc1ccc(NC(=O)N(C)C[C@@H]2Oc3c(NS(=O)(=O)c4ccccc4)cccc3C(=O)N([C@H](C)CO)C[C@H]2C)cc1,-2.5[16.7 µM]
C[C@@H]1CN([C@H](C)CO)C(=O)c2c(c3ccccc3n2C)-c2ccccc2CO[C@@H]1CN(C)C(=O)Nc1ccc(F)cc1,2.8[16.7 µM]
CN1CCN(C(=O)C[C@@H]2C=C[C@@H](NS(=O)(=O)c3cccc(F)c3)[C@@H](CO)O2)CC1,15.3[16.7 µM]
O=C(C[C@@H]1CC[C@H]2NC[C@H](O)COC[C@@H]2O1)Nc1nccs1,-7.7[16.7 µM]
C[C@H](CO)N1C[C@H](C)[C@H](CN(C)Cc2ccc(-c3ccccc3)cc2)Oc2c(NC(=O)Nc3cccc4ccccc34)cccc2C1=O,22.8[16.7 µM]
CC(C)NC(=O)N(C)C[C@H]1OCCCC[C@@H](C)Oc2ccc(N(C)C)cc2C(=O)N([C@@H](C)CO)C[C@H]1C,14.3[16.7 µM]
CO[C@@H]1CN(C)C(=O)c2cc(NC(=O)C3CCOCC3)ccc2OC[C@H](C)N(CC2CC2)C[C@@H]1C,-7.4[16.7 µM]
COc1ccc(CN2C[C@H](C)[C@H](OC)CN(C)C(=O)c3cc(NC(=O)C4CC4)ccc3OC[C@@H]2C)cc1,10.1[16.7 µM]
CO[C@@H](C(=O)N(C)C[C@H]1OCc2ccccc2-c2c(n(C)c3ccccc23)C(=O)N([C@H](C)CO)C[C@H]1C)c1ccccc1,-38.8[16.7 µM]
CC(C)NC(=O)Nc1ccc2c(c1)C(=O)N([C@H](C)CO)C[C@@H](C)[C@@H](CN(C)C(=O)C1CCCCC1)OCCCC[C@@H](C)O2,42.1[16.7 µM]
C[C@H](CO)N1C[C@H](C)[C@H](CN(C)C(=O)Nc2ccc(F)cc2)Oc2ccc(NS(=O)(=O)c3cn(C)cn3)cc2C1=O,-17.0[16.7 µM]
CCCN(C)C[C@@H]1OCCCC[C@H](C)Oc2ccc(NS(=O)(=O)c3ccc(C)cc3)cc2C(=O)N([C@H](C)CO)C[C@@H]1C,-4.0[16.7 µM]
C[C@H]1CN([C@@H](C)CO)C(=O)c2ccccc2-c2ccccc2CO[C@H]1CN(C)C(=O)Cc1ccccc1,51.0[16.7 µM]
CCS(=O)(=O)Nc1ccc2c(c1)C(=O)N(C)[C@H]1CC[C@H](CC(=O)NCCOC)O[C@@H]1CO2,5.6[16.7 µM]
COC(=O)[C@@H](Cc1ccccc1)N[C@H](/C=C/c1ccccc1)[C@@H](O)Cc1ccccc1,-10.6
C[C@H](CO)N1C[C@H](C)[C@H](CN(C)C(=O)C2CCC2)Oc2cc(-c3ccc(F)cc3)ccc2S1(=O)=O,8.7[16.7 µM]
COc1cccc(S(=O)(=O)N(C)C[C@@H]2OCc3ccccc3-c3c(n(C)c4ccccc34)C(=O)N([C@@H](C)CO)C[C@H]2C)c1,-13.0[16.7 µM]
CC(C)NC(=O)Nc1ccc2c(c1)C(=O)N([C@@H](C)CO)C[C@H](C)[C@H](CN(C)Cc1ccc(-c3ccccc3)cc1)O2,-3.8[16.7 µM]
CCCCCn1cc(CCC(=O)Nc2ccc(Oc3cccnc3)cc2)c2ccccc21,35.9
CC(=O)N(C)C[C@@H]1OCc2ccccc2-c2ccccc2C(=O)N([C@H](C)CO)C[C@@H]1C,-0.5[16.7 µM]
CC(C)NC(=O)Nc1ccc2c(c1)C(=O)N([C@H](C)CO)C[C@H](C)[C@@H](CN(C)C(=O)NC(C)C)OCCCC[C@H](C)O2,-5.5[16.7 µM]
COc1ccccc1CNC(=O)C[C@@H]1CC[C@@H]2[C@H](COC[C@@H](O)CN2Cc2ccc3c(c2)OCO3)O1,12.8[16.7 µM]
COCC(=O)Nc1ccc2c(c1)[C@H]1C[C@H](CC(=O)NCc3ccccc3F)O[C@@H](CO)[C@H]1O2,-9.1[16.7 µM]
Cc1noc(C)c1S(=O)(=O)N(C)C[C@@H]1OCc2ccccc2-c2ccccc2C(=O)N([C@H](C)CO)C[C@H]1C,-2.2[16.7 µM]
CCC(=O)N1C[C@H](O)COC[C@@H]2O[C@H](CC(=O)NC)CC[C@H]21,-8.1[16.7 µM]
CCCNC(=O)N1CC2(CCN(C(=O)CC)CC2)c2c(n(C)c3cc(OC)ccc23)[C@H]1CO,-22.2[16.7 µM]
CO[C@H]1CN(C)C(=O)c2cc(NC(=O)C3CCOCC3)ccc2OC[C@H](C)N(CC2CC2)C[C@@H]1C,-19.9[16.7 µM]
CO[C@H]1CN(C)C(=O)c2ccc(NC(=O)NC(C)C)cc2OC[C@@H](C)N(Cc2ccccn2)C[C@H]1C,-9.8[16.7 µM]
COC(=O)c1cc2c(c3c4cc(OC)ccc4n(S(=O)(=O)c4ccc(OC)cc4)c13)C(=O)N(Cc1ccccc1OC)C2,14.6
CN(C)C(=O)c1cccc(-c2cccc(-c3nc(C(=O)N4CCOCC4)cc4c3[C@@H](CCO)N([S@](=O)C(C)(C)C)C4)c2)c1,-3.9[16.7 µM]
CN1CCN(C(=O)C[C@@H]2C[C@@H]3c4cc(NC(=O)c5ccc6c(c5)OCO6)ccc4O[C@@H]3[C@H](CO)O2)CC1,2.5[16.7 µM]
CO[C@H]1CC[C@@H]2CCOc3ccc(C#N)cc3C(=O)N(C)C[C@@H](c3ccccc3)CC(=O)N(C)C[C@H]1O2,-30.5[16.7 µM]
O=C([C@H]1[C@H](CO)[C@H]2Cn3c(cccc3=O)[C@@H]1N2)N1CCc2ccccc2C1,9.1[16.7 µM]
Cc1noc(C)c1NC(=O)Nc1ccc2c(c1)C(=O)N([C@H](C)CO)C[C@H](C)[C@@H](CN(C)CC1CC1)OCCCC[C@H](C)O2,10.4[16.7 µM]
C[C@@H]1Cn2cnc(C(=O)N3CCN(C(=O)OC(C)(C)C)CC3)c2C(=O)N1,35.0
COc1ccccc1CNC(=O)C[C@@H]1C[C@H]2c3cc(NS(=O)(=O)c4ccc(F)cc4)ccc3O[C@H]2[C@H](CO)O1,3.3[16.7 µM]
Cc1ccc(NC(=O)Nc2ccc3c(c2)C(=O)N(C)[C@@H]2CC[C@@H](CC(=O)NCC(F)(F)F)O[C@@H]2CO3)cc1,11.0[16.7 µM]
C[C@H]1CN([C@@H](C)CO)S(=O)(=O)c2ccc(/C=C/c3ccccc3)cc2O[C@@H]1CN(C)C(=O)Nc1cc(F)ccc1F,-12.3[16.7 µM]
CCC(=O)N1C[C@H](C)[C@H](OC)CN(C)C(=O)c2ccc(NC(=O)c3cc(C)on3)cc2OC[C@@H]1C,-3.5[16.7 µM]
COC(=O)C1=C(C)N(Cc2cccc(C(F)(F)F)c2)C(=NCc2ccc(OC)cc2)NC1c1ccc(F)cc1 (stereo not given),2.1
CC(C)C[C@H](NC(=O)c1ccccn1)C(=O)N1CCC[C@H]1C(=O)NCc1ccccc1,1.4
Cc1ccc(S(=O)(=O)NC[C@@H]2CC[C@@H]3[C@@H](CN3C(=O)CN(C)C)O2)cc1,-33.4[16.7 µM]

# Further records.
SMILES,HIV Env fusion
O=C(CCN1CCCCC1)NCC[C@H]1CC[C@@H](NS(=O)(=O)c2cccc(Cl)c2)[C@@H](CO)O1,8.6[16.7 µM]
O=S1(=O)c2cc(Cl)ccc2N2CCC[C@@H]2CN1Cc1ccc(Cl)c(Cl)c1,?
C#CCNC(=O)C[C@H]1C[C@@]2(C(=O)OC)C(=C[C@H](C(C)(C)C)O[C@@H]2C)N(Cc2ccccc2)C1=O,4.2
CC(C)NC(=O)N(C)C[C@H]1OCCCC[C@H](C)Oc2ccc(N(C)C)cc2C(=O)N([C@@H](C)CO)C[C@H]1C,1.8[16.7 µM]
CCC(=O)N1CCC2(CC1)CN(C(=O)CN1CCOCC1)[C@@H](CO)c1c2c2ccc(OC)cc2n1C,-1.2[16.7 µM]
CCCCCCCCN1C(=O)[C@@H](CC(=O)N2CCOCC2)C[C@@]2(C(=O)OC)C1=C[C@H](C1CCCC1)O[C@@H]2C,17.0
COc1ccc2c3c(n(C)c2c1)[C@@H](CO)N(C(=O)c1ccccc1)CC31CCN(C(C)=O)CC1,30.6[16.7 µM]
COc1cccc(S(=O)(=O)Nc2ccc3c(c2)[C@H]2C[C@H](CC(=O)NC4CCCCC4)O[C@@H](CO)[C@H]2O3)c1,-22.6[16.7 µM]
C[C@@H]1CN([C@H](C)CO)C(=O)Cc2cc(NS(=O)(=O)c3ccc(F)cc3)ccc2O[C@@H]1CN(C)Cc1ccc(-c2ccccc2)cc1,-15.8[16.7 µM]
CC(C)C[C@H]1COCn2nncc2CC[C@H](C)C(=O)N1,-29.8[16.7 µM]
COc1cccc(S(=O)(=O)N[C@H]2CC[C@@H](CCN)O[C@@H]2CO)c1,68.0*[16.7 µM]
CCCN1C[C@@H](C)[C@@H](OC)CN(C)C(=O)c2cc(NC(=O)Nc3cccc(F)c3)ccc2OC[C@H]1C,-8.8[16.7 µM]
CCCCN(CCCC)CCCNC(=O)Cn1cc(C)c(=O)[nH]c1=O,-8.5
CN(C)c1ccc2c(c1)[C@H]1C[C@H](CC(=O)NCCN3CCCCC3)O[C@@H](CO)[C@H]1O2,-7.7[16.7 µM]
CNC[C@H]1OCCCC[C@@H](C)Oc2ccc(NS(=O)(=O)c3cccs3)cc2C(=O)N([C@H](C)CO)C[C@H]1C,-19.2[16.7 µM]
Cc1cccc(S(=O)(=O)N2C[C@H](O)COC[C@H]3O[C@@H](CC(=O)Nc4ccc(-c5ccccc5)cc4)CC[C@@H]32)c1,5.3[16.7 µM]

# 10 entries from above, bar-delimited:
Structure | HIV Env fusion
CCCCCCCCN1C(=O)[C@@H](CC(=O)N2CCOCC2)C[C@@]2(C(=O)OC)C1=C[C@H](C1CCCC1)O[C@@H]2C | 17.0
COc1ccc2c3c(n(C)c2c1)[C@@H](CO)N(C(=O)c1ccccc1)CC31CCN(C(C)=O)CC1 | 30.6[16.7 µM]
COc1cccc(S(=O)(=O)Nc2ccc3c(c2)[C@H]2C[C@H](CC(=O)NC4CCCCC4)O[C@@H](CO)[C@H]2O3)c1 | -22.6[16.7 µM]
C[C@@H]1CN([C@H](C)CO)C(=O)Cc2cc(NS(=O)(=O)c3ccc(F)cc3)ccc2O[C@@H]1CN(C)Cc1ccc(-c2ccccc2)cc1 | -15.8[16.7 µM]
CC(C)C[C@H]1COCn2nncc2CC[C@H](C)C(=O)N1 | -29.8[16.7 µM]
COc1cccc(S(=O)(=O)N[C@H]2CC[C@@H](CCN)O[C@@H]2CO)c1 | 68.0*[16.7 µM]
CCCN1C[C@@H](C)[C@@H](OC)CN(C)C(=O)c2cc(NC(=O)Nc3cccc(F)c3)ccc2OC[C@H]1C | -8.8[16.7 µM]
CCCCN(CCCC)CCCNC(=O)Cn1cc(C)c(=O)[nH]c1=O | -8.5
CN(C)c1ccc2c(c1)[C@H]1C[C@H](CC(=O)NCCN3CCCCC3)O[C@@H](CO)[C@H]1O2 | -7.7[16.7 µM]
CNC[C@H]1OCCCC[C@@H](C)Oc2ccc(NS(=O)(=O)c3cccs3)cc2C(=O)N([C@H](C)CO)C[C@H]1C | -19.2[16.7 µM]

# Bioassay records as filed in PubChem.
